RE007 growth inh: qHTS Assay for Inhibitors of the HIV-1 protein Vpr; S. pombe RE007 Vpr strain, BacTiter-Glo ATP luminescence, 24 h; control for the full effect not named in the record; Potency, µM (top dose mostly 92.2 µM), for the others: top-dose activity change, negative = less growth; actives 0.21% (n = 360,000); active = well fitted falling curve with a large enough effect; inconclusive = small, poorly fitted or top-dose-only effect; inactive = no such curve, though single readings can be large or run the other way;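 also: % is scaled to controls: 0 for no effect and ±100 for the full control effect; nearly all actives have a fitted effect of over 50% in size; the assay follows cell death caused by Vpr and the record does not say whether a fall means rescue or toxicity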
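Fission yeast RE007 carrying one integrated HIV-1 vpr copy, seeded at OD 0.01 in PMG+AL medium with 23 nL pinned compound. Grown 24 h at 30 degrees; viability read by BacTiter-Glo luminescence after 5 min.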
SARS PLpro yeast: qHTS of Yeast-based Assay for SARS-CoV PLP | S. cerevisiae expressing SARS-CoV PLpro, growth rescue; control for the full effect not named in the record | Potency, µM (doses to about 32.9 µM), for the others: at the top dose activity, positive = growth rescue | actives 0.19% (n = 330,000); active means well fitted rising curve with a large enough effect; inconclusive means small, poorly fitted or top-dose-only effect; inactive means no such curve, though single readings can be large or run the other way; also: 0% is about no effect; nearly all actives have a fitted effect of over 55% in size; growth read by luminescence after 48 h
NS1 function inh: qHTS Assay for Inhibitors of Influenza NS1 Protein Function | S. cerevisiae slowed by influenza A NS1, growth recovery by OD600 | actives 0.4% (n = 270,000) | Potency, µM (top dose mostly 46.1 µM), for inactives: top-dose activity, positive = more growth | AID 2326, 2010; active means well fitted rising curve with a large enough effect; inconclusive means small, poorly fitted or top-dose-only effect; inactive means no such curve, though single readings can be large or run the other way; also: nearly all actives have a fitted effect of over 50% in size
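OD600 was taken as the measure of yeast growth restored by compound in an NS1-expressing S. cerevisiae strain. Cells had been washed out of glucose medium and diluted 1:100 into galactose -URA medium, pH 6.0.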
MARV entry inh: qHTS for inhibitors of binding or entry into cells for Marburg Virus; Potency, µM (highest dose often 37.8 µM), inactives show at the top dose activity change, negative = inhibition, usual class: inhibitors; Marburg virus pseudotyped entry inhibition, cell reporter; control for the full effect not named in the record; about a third of the inactives were read at about 46 µM; actives 1.8% (n = 300,000); active = well fitted inhibition curve with a large enough effect; inconclusive = small, poorly fitted or top-dose-only effect, or effect the other way; inactive = flat fitted curve, though single readings scatter; tested in HEK293 cells; about a fifth of its hits are not listed in these tables; also: % is scaled to controls: 0 for no effect and ±100 for the full control effect; luciferase read-out
Cruzain inh Det: qHTS Assay for Promiscuous and Specific Inhibitors of Cruzain (with detergent) | Cruzipain (Trypanosoma cruzi), P25779 | purified cruzain, Z-FR-AMC fluorescence, 0.01% Triton | Potency, µM, inactives show max response, negative = inhibition, hits mostly inhibitors | actives 0.43% (n = 200,000);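 also: plate controls were neutral wells for no effect and buffer without enzyme for full effect; nearly all actives have a fitted effect of over 40% in size; top concentration of the series not given in the record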
Target sequence (P25779 123-467 limits assumed): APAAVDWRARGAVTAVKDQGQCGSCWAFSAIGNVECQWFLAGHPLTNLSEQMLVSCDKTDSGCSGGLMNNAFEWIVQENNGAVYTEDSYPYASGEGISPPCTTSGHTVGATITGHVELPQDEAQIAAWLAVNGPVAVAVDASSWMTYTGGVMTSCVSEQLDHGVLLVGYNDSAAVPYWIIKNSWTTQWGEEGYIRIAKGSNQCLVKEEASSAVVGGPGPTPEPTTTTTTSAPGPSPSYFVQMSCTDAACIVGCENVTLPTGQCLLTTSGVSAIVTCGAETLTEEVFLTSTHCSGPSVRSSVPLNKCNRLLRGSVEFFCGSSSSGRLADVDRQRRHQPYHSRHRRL
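Compounds were screened in titration against cruzain (1.5 nM) with 0.01% Triton X-100 to counter colloidal aggregation. Activity was the AMC fluorescence increase over 60 s after adding 2 uM Z-FR-AMC at pH 5.5.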
StopGo reporter: High Throughput Screening for Foot and Mouth Disease Virus Antivirals; AID 1159524, 2015; actives 1.2% (n = 410,000); Potency, µM (titrated, usually from 57.9 µM), without a hit: at the top dose signal change, negative = less light; human cells with a luciferase reporter of 2A StopGo recoding; control for the full effect not named in the record; active = well fitted falling curve with a large enough effect; inconclusive = small, poorly fitted or top-dose-only effect; inactive = no such curve, though single readings can be large or run the other way; tested in HEK293T cells; also: % is scaled to controls: 0 for no effect and ±100 for the full control effect; nearly all actives have a fitted effect of over 45% in size; luciferase light after 4 h
Lassa entry inh: qHTS for Inhibitors of binding or entry into cells for Lassa Virus; Lassa virus pseudotype entry inhibition, cell reporter; control for the full effect not named in the record; Potency, µM (top dose mostly 37.9 µM), for inactives: top-dose activity change, negative = inhibition, actives largely listed as inhibitors; actives 1.2% (n = 300,000); AID 540256, 2011; active means well fitted inhibition curve with a large enough effect; inconclusive means small, poorly fitted or top-dose-only effect, or effect the other way; inactive means flat fitted curve, though single readings scatter; tested in HEK293 cells; also: % is scaled to controls: 0 for no effect and ±100 for the full control effect; nearly all actives have a fitted effect of over 50% in size; luciferase read-out
Cruzain inh noDet: qHTS Assay for Promiscuous and Specific Inhibitors of Cruzain (without detergent) | purified cruzain, Z-FR-AMC fluorescence, no detergent | Potency, µM, for inactives: max response, negative = inhibition, most hits filed as inhibitors | actives 2.3% (n = 200,000);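 also: plate controls were enzyme without inhibitor for no effect and buffer without enzyme for full effect; nearly all actives have a fitted effect of over 40% in size; top concentration of the series not given in the record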
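Purified cruzain at 1.5 nM, pre-incubated 15 min with compound at room temperature in 100 mM sodium acetate pH 5.5, 5 mM DTT, 0.00005% Triton X-100. Reaction started with 2 uM Z-FR-AMC; AMC fluorescence increase over 60 s gives rate.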
* marks the source's active call; other numbers are inactive results; ? = inconclusive; . = no result given; & = joins results of further samples; [ ] = remark or other dose. Unless noted, calls follow the shape of the dose curve; as a rule, active = well fitted curve in the direction sought with a large enough effect; inconclusive = small, poorly fitted or top-dose-only effect, or another doubt; inactive = no such curve, though single readings can be large; an effect the other way counts as inactive or inconclusive. Potency is read from the fitted curve at half-maximal effect.

SMILES	RE007 growth inh	SARS PLpro yeast	NS1 function inh	MARV entry inh	Cruzain inh Det	StopGo reporter	Lassa entry inh	Cruzain inh noDet
O=C1S/C(=C\c2ccc(N3CCOCC3)o2)C(=O)N1Cc1c(F)cccc1Cl	-19%	-4%	-22%	-15%	-7.5%	.	-14%	-2%
CC(C)c1ccc(/C=N/NC(=O)CN(c2cccc(Cl)c2Cl)S(C)(=O)=O)cc1	-3%	-10%	10%	?	-9.7%	0%	-24%	?
COc1ccc(CCNC(=O)CN2CCOc3ccccc32)cc1OC	9%	10%	?	2%	2.8%	-19%	19%	-4%
CC1(C)C2C/C(=N\O)C(C)(/[N+]([O-])=C/c3cccc([N+](=O)[O-])c3)CC21 (stereo not given)	3%	-2%	-2%	?	.	?	?	.
CCN(Cc1cnn(C)c1)C(=O)c1cc(COc2ccc(F)cc2F)on1	1%	-1%	-9%	.	.	19%	.	.
CN(CC(=O)Nc1ccc(F)c(F)c1F)C1CCCCC1	-3%	3%	8%	?	1.1%	3%	-12%	9%
CNC(=O)/C=C1\NC(C)(C)Cc2c1ccc1ccccc21	8%	2%	-10%	?	-0.9%	?	2%	0%
Cn1ccnc1C(=O)c1ccc(N)cc1	-11%	-1%	9%	20%[46.1 µM]	.	14%	-2%	.
Oc1ccc(Cc2ncc(C(F)(F)F)cc2Cl)cc1	-4%	-1%	.	-20%[46.1 µM]	.	-19%	?	.
Cc1ccn(C(C)CC(=O)N2CCc3ccccc32)n1 (stereo not given)	5%	-4%	2%	.	.	0%	.	.
CCOC(=O)c1c(NC(=S)NC(C)=O)sc(C)c1C	-1%	11%	2%	55%	0.1%	1%	?	5%
CC1CC2=C(C(=O)O1)C(c1ccc(Cl)cc1)Nc1ccccc1N2 (stereo not given)	-2%	5%	0%	?	-6.3%	-5%	?	12%
Cn1c(=O)[nH]c(=O)c2c1nc(Br)n2CCC(=O)c1ccccc1	-11%	?	-6%	26%	5.5%	0%	17%	3%
CCOC(=O)C1(CC2CC2)CCN(Cc2ccc(OC)cc2F)CC1	4%	-1%	-2%	10µM*	.	?	?	.
C=CCn1c(C2CCCCC2)n[nH]c1=S	-8%	0%	.	4%	.	?	-2%	.
O=C(Nc1ncccn1)c1cc(-c2ccc(F)cc2)nc2ccccc12	-22%	0%	.	3%[46.1 µM]	.	32µM*	5%[46.1 µM]	.
CC(Sc1nncn1C)C(=O)Nc1ccc(Cl)cn1 (stereo not given)	-2%	8%	3%	4%	1.0%	13%	?	-3%
O=C(NNC(=O)C1C2C=CC(C2)C1C(=O)O)c1ccccc1 (stereo not given)	-15%	1%	-11%	?	.	21%	2%[46.1 µM]	.
Cc1nn(-c2ccccc2)c(C)c1-c1ccccc1O	8%	-8%	-12%	.	.	?	.	.
COc1ccc(OCC(O)Cn2c(Nc3cccc(C)c3)nc3c2c(=O)n(C)c(=O)n3C)cc1 (stereo not given)	-6%	0%	-2%	?	-4.8%	-17%	?	?
COc1ccc(N2CCN(c3ccc([N+](=O)[O-])cc3Cl)CC2)cc1	-8%	6%	4%	27%	-5.7%	-6%	-7%	3%
CCOC(=O)C1CCN(C(=O)c2ccccc2N(C)S(C)(=O)=O)CC1	-3%	-4%	5%	?	3.2%	11%	1%	4%
O=S(=O)(NCc1ccccc1)c1ccc(S(=O)(=O)N2CCCCC2)cc1	-11%	-8%	3%	-10%	3.3%	48%[activator]	-8%	?
CC1CCc2sc(C(=O)NNS(=O)(=O)c3ccc(F)c(F)c3F)cc2C1 (stereo not given)	0%	2%	.	-1%	.	6%	4%[46.1 µM]	.
COc1cc(C2c3c(-c4cc(Cl)c(C)cc4O)n[nH]c3C(=O)N2Cc2cccnc2)ccc1O (stereo not given)	-14%	-3%	-59%	0%&-28%	-1.0%	?	-29%	9%

Reprinted from the part before: two entries; new compounds follow.
SMILES	RE007 growth inh	SARS PLpro yeast	NS1 function inh	MARV entry inh	Cruzain inh Det	StopGo reporter	Lassa entry inh	Cruzain inh noDet
CC1CCc2sc(C(=O)NNS(=O)(=O)c3ccc(F)c(F)c3F)cc2C1 (stereo not given)	0%	2%	.	-1%	.	6%	4%[46.1 µM]	.
COc1cc(C2c3c(-c4cc(Cl)c(C)cc4O)n[nH]c3C(=O)N2Cc2cccnc2)ccc1O (stereo not given)	-14%	-3%	-59%	0%&-28%	-1.0%	?	-29%	9%
CC(=O)c1c(C)[nH]c(C(=O)COC(=O)c2cccs2)c1C	10%	15%	.	-12%	.	14%	?	.
Cc1ccc(S(=O)(=O)N(CC(=O)NCc2ccncc2)Cc2ccccc2F)cc1	2%	0%	-1%	?	.	3%	.	.
CCc1ccc(-c2nc(CS(=O)CC(=O)NCc3ccc4c(c3)OCO4)c(C)o2)cc1 (stereo not given)	3%	?	25%	.	.	-10%	.	.
O=C(COc1ccc2c3c(c(=O)oc2c1)CCC3)c1ccc2c(c1)OCO2	14%	2%	9%	1%	1.2%	.	8%	-18%
C#CCOC(=O)c1ccccc1C(=O)OCC#C	-11%	2%	?	15%	2.9%	7%	5%	-2%
CC(=O)Nc1cccc(NS(=O)(=O)c2c(C)noc2C)c1	0%	-4%	.	8%	.	-9%	6%	.
O=C(c1ccc2ccccc2n1)N1CCN(c2ccccn2)CC1	-4%	2%	0%	10%[46.1 µM]	.	5%	20%	.
CCN(CC)S(=O)(=O)c1cccc(C(=O)N/N=C/c2cc(OC)c(O)c(OC)c2)c1	5%	-9%	-8%	21%	-9.4%	?	14%	25%
O=C(CCOc1ccccc1)Nc1cccc([N+](=O)[O-])c1	17%	0%	.	18%[46.1 µM]	.	20%	10%[46.1 µM]	.
CCOn1c(SCC)nc2ccccc2c1=O	-3%	4%	-65%	12%	-1.6%	-3%	9%	0%
CN(CCO)c1ccc([N+](=O)[O-])cc1C(=O)O	11%	3%	15%	?	-5.4%	26%	-3%	1%
CCOc1cc(/C=N\Nc2nc(-c3ccc(C)cc3)c(NC(C)=O)s2)ccc1O	-5%	3%	23%	2%[46.1 µM]	.	27%	?	.
CCCCC(=O)N(c1ccc2oc(C)c(C(C)=O)c2c1)S(=O)(=O)c1ccc(F)cc1C	.	.	.	2%[46.1 µM]	-0.8%	-8%	18%[46.1 µM]	-11%
COC(=O)C(C)Sc1nc2ccsc2c(=O)n1Cc1ccccc1 (stereo not given)	52%	-1%	-12%	6%[46.1 µM]	.	-13%	-13%	.
COc1ccc(C)cc1NC(=O)CSc1nnc(-c2ccco2)n1N	20%	0%	3%	1%	0.9%	14%	14%	2%
CCOC(=O)c1c(S(=O)(=O)NCC(=O)N2CCN(c3cccc(OC)c3)CC2)c(C)n(C)c1C	-3%	6%	24%	.	.	3%	.	.
C/C=C(\C)c1nnc(NC(=O)C(C)C)s1	-4%	8%	?	?	6.9%	14%	-16%	-3%
CCC(C)(C(=O)NC1CCCCC1)N(C(=O)CNC(=O)c1ccccc1)c1c(C)n(C)n(-c2ccccc2)c1=O (stereo not given)	0%	1%	.	5%[46.1 µM]	.	24%	9%	.
O=C(O)CCC(=O)N1CCc2cc(S(=O)(=O)N3CCN(c4ccc(F)cc4)CC3)ccc21	-9%	11%	-47%	0%	1.3%	-6%	.	46%
Cc1ccc(C)c(CSc2cn(CC(=O)N3CCCCCC3)c3ccccc23)c1	.	.	.	.	-1.5%	-11%	0%[46.1 µM]	-5%
O=C(CSc1ncccn1)NC(=O)Cc1ccccc1	4%	-2%	.	12%	.	-8%	0%	.
Cc1cc(C)cc(NC(=O)CSc2nc3sc4c(c3c(=O)[nH]2)CCCC4)c1	.	.	.	.	0.7%	0%	?	-5%
Cc1ccc(N(CC(=O)Nc2ccc(F)cc2)S(=O)(=O)N2CCCC2)cc1	4%	.	-38%	-9%&4%	6.2%	-1%	?	2%
Cn1nc(-c2ccc(OCC(=O)N3CCN(Cc4ccccc4)CC3)cc2)c2ccccc2c1=O	-4%&2%	2%&7%	-38%&3%	8.2µM*	-0.2%&6.2%	16µM*	-15%	6%&-3%
CCOP(=O)(Cc1cc(C(C)=O)c(C)o1)OCC	1%	1%	-1%	.	.	-64%	.	.

Following part.
SMILES	RE007 growth inh	SARS PLpro yeast	NS1 function inh	MARV entry inh	Cruzain inh Det	StopGo reporter	Lassa entry inh	Cruzain inh noDet
CCCN(CCC)C(=O)C1CC(=O)OC12CCCCC2 (stereo not given)	11%	1%	-1%	5%[46.1 µM]	.	-8%	-17%[46.1 µM]	.
OC(CN1CCCC(C(F)(F)F)C1)c1ccccc1 (stereo not given)	-5%	-9%	-11%	?	.	8%	12%[46.1 µM]	.
Cc1onc(-c2ccccc2Cl)c1C(=O)Nc1ccc(-n2nncc2C(C)(C)C)cc1	6%	-1%	-22%	-6%	-3.9%	-30%	-22%	8%
CCOC(=O)c1c(NC(=O)COC(=O)/C=C/c2ccco2)sc2c1CC(C)(C)NC2(C)C	2%	1%	.	-2%	.	-13%	-12%	.
CCc1cccc(C)c1NC(=S)N(CCCN1CCOCC1)Cc1cccnc1	-6%	-10%	.	?	.	3%	6%	.
S=C(Nc1nc2c(s1)CCCC2)NC1CC1	-10%	12%	4%	?	.	33%[activator]	-3%[46.1 µM]	.
O=C(Nc1ccc(-c2noc(CCc3ccccc3)n2)cc1)c1ccco1	?	-34%	-88%	?	-8.9%	-32%	?	7%
CCN(CC)CCNC(=O)c1ccc(NC(=O)COc2ccccc2F)cc1	-2%	2%	-1%	.	.	3%	.	.
COC(=O)c1ccc(Cl)c(NC(=O)NC2CCCCC2)c1	-14%	-8%	0%	-1%	1.2%	-11%	-16%	2%
CC(C)CC(=O)NC(=S)N(Cc1ccccc1)Cc1ccccc1	-1%	?	-26%	-8%	-5.7%	83%[activator]	?	1%
Cc1ccc(N2CCN(C(=O)c3c4c(nc5ccccc35)C(=O)N(C3CCCCC3)C4)CC2)c(C)c1	.	.	.	.	-2.8%	-26%	?	-9%
CCOc1cc(Br)c(CN2C(=O)NC3(CCCCCC3)C2=O)cc1OCC	-10%	-7%	15%	11µM*	.	?	.	.
